Screening results (PubChem)
Kir21 block – inhibitors of mouse Kir2.1 inward-rectifier potassium channel; Inward rectifier potassium channel 2 (Mus musculus), P35561; HEK293-Kir2.1, FluxOR thallium flux fluorescence; active compounds read low; B-score at 10 µM; hit rate 0.85% among 310,000; AID 1672, 2009;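 active = fluorescence ratio B-score at or below minus 3 SD of library scores, with starting-brightness B-score within 2 SD, cut at about -4.2 in these data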;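 note: channel flux triggered by added potassium and thallium sulfate stimulus; B-score of peak minus minimum fluorescence over baseline after thallium stimulus; more negative B-score means stronger Kir2.1 block with less thallium influx; some compounds called inactive have numbers as strong as hits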
Target sequence (P35561 whole entry, looked up): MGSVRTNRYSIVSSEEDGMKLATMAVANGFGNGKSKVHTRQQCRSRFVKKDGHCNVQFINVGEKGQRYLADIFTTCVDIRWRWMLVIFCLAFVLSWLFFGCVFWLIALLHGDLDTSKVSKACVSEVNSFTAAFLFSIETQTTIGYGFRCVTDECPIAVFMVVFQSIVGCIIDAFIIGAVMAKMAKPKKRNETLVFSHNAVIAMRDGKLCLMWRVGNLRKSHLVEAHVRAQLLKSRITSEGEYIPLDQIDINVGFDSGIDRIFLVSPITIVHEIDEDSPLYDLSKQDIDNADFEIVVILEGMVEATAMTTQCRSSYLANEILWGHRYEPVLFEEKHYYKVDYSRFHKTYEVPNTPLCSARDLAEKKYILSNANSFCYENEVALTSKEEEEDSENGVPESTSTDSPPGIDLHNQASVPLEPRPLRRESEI
Starred values were filed as active, the others as inactive. A portion of the library, and most or all hits are left out here.

canonical_smiles	Kir21 block
CC(NC(=O)Nn1cnnc1)(C(F)(F)F)C(F)(F)F	0.11
CCOc1ccc(NC(=O)CC2CC(C)(C)OC2=O)cc1 (stereo not drawn)	0.7
CCCOC(=O)CSC1=C(C#N)C(c2ccccc2OC)C(C#N)C(=O)N1 (stereo not drawn)	-0.11
O=C(Nc1nc2c(s1)CCCC2)c1cccc(S(=O)(=O)N2CCCc3ccccc32)c1	-2.4
O=C(O)c1cccc(S(=O)(=O)N2CCN(c3ccccn3)CC2)c1	0.09
C#CCOc1nc(C)cc(C)c1S(=O)(=O)c1ccccc1C	0.06
O=C(Nc1ccncc1)c1ccc2ncsc2c1	-0.54
CC(C)(C)c1cc(CCC(=O)NCC2CCCO2)cc(C(C)(C)C)c1O (stereo not drawn)	-3.2
Cc1nn(-c2ccccc2)c(Cl)c1C(=O)Nc1nnc(C2CCCCC2)s1	1.2
O=C(Nc1ccccc1)C1=C[C@H](c2ccc(C(F)(F)F)cc2)C[C@H](OCc2ccc(CO)cc2)O1	0.29
C=CCN(CC=C)C(=O)Cc1ccc(F)cc1	-0.01
Cc1ccc(CCNC(=O)C2CCCN(C(=O)N(C)C)C2)cc1 (stereo not drawn)	2.8
CC1(c2nnc(-c3ccc(F)cc3)o2)CC(c2ccc(Cl)cc2)=NO1 (stereo not drawn)	-1.6
CC1CCN(C(=S)NC(=O)C2CCCCC2)CC1	0.01
FC(F)(F)Oc1ccc(Nc2nc3ccccc3o2)cc1	0.12
COc1cc(C)c(C(C)C)cc1S(=O)(=O)N1CCN(C)CC1	0.49
C/C(=N\NC(=O)c1ccc([N+](=O)[O-])cc1)c1cc2ccccc2oc1=O	-1.6
O=C(OCCN1C(=O)c2ccccc2C1=O)c1cc(S(=O)(=O)N2CCOCC2)ccc1Cl	-0.53
O=C(NCCNc1cc(Cl)ccc1[N+](=O)[O-])c1ccco1	1.2
COc1cc(OC)c(C2C(C(=O)Nc3ccccc3)=C(C)Nc3ncnn32)cc1OC (stereo not drawn)	-1.7

Structures listed so far containing fluorine, in the order listed:
canonical_smiles	Kir21 block
CC(NC(=O)Nn1cnnc1)(C(F)(F)F)C(F)(F)F	0.11
O=C(Nc1ccccc1)C1=C[C@H](c2ccc(C(F)(F)F)cc2)C[C@H](OCc2ccc(CO)cc2)O1	0.29
C=CCN(CC=C)C(=O)Cc1ccc(F)cc1	-0.01
CC1(c2nnc(-c3ccc(F)cc3)o2)CC(c2ccc(Cl)cc2)=NO1 (stereo not drawn)	-1.6
FC(F)(F)Oc1ccc(Nc2nc3ccccc3o2)cc1	0.12

Continuation.
canonical_smiles	Kir21 block
Cc1ccc(SCC(=O)Nc2cccc(NC(=O)c3ccco3)c2)cc1	-0.19
COc1ccc(C(=O)N2CCCCC2C(=O)Nc2ccc(-n3nc(C)cc3C)cc2)o1 (stereo not drawn)	0.23
Cc1cccc(Nc2c([N+](=O)[O-])ccc3nonc23)c1	0.09
CCc1c(C)nc2ncnn2c1NC1CCCc2ccccc21 (stereo not drawn)	1.1
O=C(NCc1ccncc1)c1ccc(Cl)c(S(=O)(=O)N2CCCCC2)c1	1.3
COCc1cc(/C=N\NC(=O)COc2ccc(Cl)cc2)ccc1OC	1.9
S=C(NCc1ccccc1)NC1CCCCC1	-0.42
CC1CCN(Cc2nc3c(c(=O)n(C)c(=O)n3C)n2CCc2ccccc2)CC1	-0.4
COc1ccc(NC(=O)/C=C/c2ccc(OC)c(OC)c2)cn1	0.97
Cc1ccc(S(=O)(=O)N[C@@H](Cc2ccccc2)C(=O)N2CCC(C(=O)N[C@H](C(=O)O)C(C)O)CC2)cc1 (stereo partly drawn)	0.74
O=C(NCc1ccccc1F)c1cccs1	0.98
O=C(NN1C(=O)c2ccccc2NC1c1cccnc1)c1ccccc1 (stereo not drawn)	-4.3
CC(Oc1ccc2ccc(=O)oc2c1)C(=O)NCC1CCC(C(=O)O)CC1 (stereo not drawn)	-1.6
CC(C)(C)c1ccc(OC(=O)c2ccc3snnc3c2)cc1	0.25
O=C(NCc1ccncc1)C1CCCCC1	-0.62
COc1ccc(CNC(=O)C2CSCCS2)cc1 (stereo not drawn)	-0.32
Cc1oc(C(C)(C)C)cc1-c1cc(NC(=O)c2ccc([N+](=O)[O-])cc2)n[nH]1	0.89
COc1ccc(CNC(=O)c2ccc(N3CCC4(CC3)CC(c3ccc(Cl)cc3)=NO4)c([N+](=O)[O-])c2)cc1	0.45
Cc1cc(C)cc(NS(=O)(=O)c2ccc3[nH]c(=O)[nH]c3c2)c1	-0.45
CCOC(=O)c1[nH]c(C)c(C(=O)Nc2cc(OC)ccc2OC)c1C	-2.2

Remaining list, next part:
canonical_smiles	Kir21 block
Cc1cc(Cl)ccc1NC(=S)NCc1ccccc1Cl	0.4
COc1ccc2nc(NC(=O)c3cccc(-c4cc5ccccc5oc4=O)c3)sc2c1	0.01
Fc1ccc(NC(=S)Nc2cc(-c3ccccc3)[nH]n2)cc1Cl	-0.05
CCn1c(=O)cc(OCC(=O)Nc2ccccc2C#N)c2ccccc21	-0.36
Cc1cccc(OCC(=O)Nc2ccc3c(C)cc(=O)oc3c2)c1	1.1
COc1ccc(OC)c(N2C(=O)CC(Cc3ccc(Cl)cc3)C2=O)c1 (stereo not drawn)	-2.6
Cc1cccc(C(=O)Nc2ccccc2-c2nnn(CC(=O)Nc3ccc4c(c3)OCCO4)n2)c1	-0.96
COCCN(C(=O)CCC(=O)Nc1cc(C)on1)C(C(=O)NC1CCCC1)c1ccc(C)cc1 (stereo not drawn)	-0.93
COc1ccc(-n2nnnc2/C=C\Nc2ccccc2C(=O)c2ccccc2)cc1	0.44
CNC(=O)CC1C(=O)N(C)C(=S)N1NC(=O)c1ccc(Cl)cc1 (stereo not drawn)	0.24
COC(=O)c1ccc(COc2cccc3c2OC(C)(C)C3)cc1	0.77
CCCOc1ccccc1/C=C1\SC(N)=NC1=O	0.69
CSCCC(C(=O)N1CC2(C)CC1CC(C)(C)C2)N1C(=O)c2ccccc2C1=O (stereo not drawn)	-0.53
CCOC(=O)/C(N=Nc1ccc(Cl)cc1)=C(/O)c1ccc([N+](=O)[O-])cc1	1
O=S(=O)(Nc1ccncc1)c1ccc(Cl)cc1	0.61
Cc1ccc(CNC(=O)C2CC(=O)N(C3CCCCCCC3)C2)cc1 (stereo not drawn)	-0.84
Cc1sc2ncnc(SCC(=O)Nc3nc(-c4ccc(F)c(F)c4)cs3)c2c1C	-1.5
CSCCC(NC(=O)c1ccco1)C(=O)OCC(=O)Nc1sccc1C#N (stereo not drawn)	0.21
Cc1nnc(NC(=O)c2cccc(S(=O)(=O)N3CCN(C)CC3)c2)s1	1.6
O=C(CNS(=O)(=O)c1ccc2ccccc2c1)OCc1nnc(-c2ccccc2)o1	-0.71

Next section
canonical_smiles	Kir21 block
CC(=O)N1CCc2cc(S(=O)(=O)NCCC(=O)NCCc3ccc(C)cc3)ccc21	-0.25
COc1ccc(/C(C)=N/Nc2cccc(C(=O)O)c2)cc1OC	0.96
Cc1onc(-c2ccccc2)c1C(=O)Nc1nnc(N2CCCCCC2)s1	-0.12
CCOc1ccc(NC(=O)CSc2nnc(Cc3ccccc3)c(=O)n2N)cc1	0.01
Cn1c(N)c(C(=O)COC(=O)c2cc(-c3ccco3)nc3ccccc23)c(=O)n(Cc2ccccc2)c1=O	0.33
COc1ccc(C2N=C(c3ccccc3)NC(c3ccccc3)=N2)cc1	-0.71
Cn1cc(CCNCc2cn[nH]c2-c2ccc(-c3ccccc3)cc2)cn1	-1.1
O=C(NCC1CCCO1)c1ccc(NC(=O)c2ccc(Br)cc2)cc1 (stereo not drawn)	0.23
COC(=O)c1ccccc1NC(=O)CN(C)S(=O)(=O)c1cc(C)ccc1OC	-3.1
CCCCn1c(SCC(=O)N(CC)C2CCS(=O)(=O)C2)nnc1C(CC)N(C)C (stereo not drawn)	-3.1
Cc1c(N(C)C(=O)C2CCCN2S(=O)(=O)c2ccccc2)c(=O)n(-c2ccccc2)n1C (stereo not drawn)	0.98
O=C(Nc1cccc2ncccc12)c1ccc2c(c1)OCCO2	0.44
COc1ccccc1C(=O)N1CCNC(=O)C1CC(=O)Nc1ccc(Cl)cc1 (stereo not drawn)	1.7
COc1ccccc1C1NC(=O)CCC1[N+](=O)[O-] (stereo not drawn)	2.1
O=C(CCc1ccccc1)N1CCN(c2ccccc2F)CC1	0.39
COc1ccc(CNC(=O)CS(=O)(=O)Cc2nc(-c3cccc(OC)c3)oc2C)cc1	-0.13
CC1=C(C(=O)OC(C)C)C(c2coc3ccccc3c2=O)C2=C(CCCC2=O)N1 (stereo not drawn)	-0.23
CS(=O)(=O)N(CC(=O)NCC1CCCO1)Cc1ccc(Cl)cc1 (stereo not drawn)	-0.83
C=CCNC(=O)Nc1ccc2nc(C)sc2c1	0.63
COC(=O)Nc1nnc(/C=C/c2ccccc2)s1	-0.78

Going on with the list.
canonical_smiles	Kir21 block
CCOC(=O)c1nnc(-c2ccc(C)cc2)nc1Oc1ccccc1Cl	-0.67
O=C(O)Cn1c(=O)c2c(c3ccccc31)CCC2	-0.23
CC(C)CC(=O)Nc1c2c(nn1-c1ccc(F)cc1)CS(=O)C2 (stereo not drawn)	0.51
CCCNC(=O)N1CCC(Cc2ccccc2)CC1	-0.08
Cc1cc(C)nc(N2CCC(C(=O)NCCc3ccc(F)cc3)CC2)n1	0.07
Cc1noc(NS(=O)(=O)c2ccc(N/C=C\C(=O)c3ccc(F)cc3)cc2)c1C	0.28
OCCN1CCN(CC(O)C(F)(F)F)CC1 (stereo not drawn)	-1.2
COc1ccc(N(CC(=O)Nc2cc(OC)ccc2OC)S(C)(=O)=O)cc1	-1.8
COc1ccc(-c2nnc(SCC(=O)Nc3cc(C)on3)o2)cc1	-0.94
O=C(/C=C/c1cccs1)c1ccc(N2CCOCC2)cc1	-1.4
Cc1cc(C)cc(NC(=O)c2ccccc2CC[N+](=O)[O-])c1	-1.2
O=C(Cc1ccc(S(=O)(=O)N2CCCCC2)s1)Nc1ccc(F)c(F)c1	-0.65
COc1ccc(Cc2noc(CN3CCN(C4CCc5ccccc5C4)CC3)n2)cc1OC (stereo not drawn)	-0.74
Cn1c(=O)c2c(nc(CN3CCN(C(=O)c4ccco4)CC3)n2CCCc2ccccc2)n(C)c1=O	0.52
CSCCC(NC(=O)c1cc([N+](=O)[O-])ccc1Cl)C(=O)O (stereo not drawn)	0.35
CCc1nc(C#N)c(N2CCOCC2)o1	-0.28
Nc1nc(NC(=O)c2ccccc2)nn1-c1ccccc1	-2.1
COc1ccc(S(=O)(=O)N2CCN(C(=O)c3ccc(C)o3)CC2)cc1	-0.59
CCC(C)(C)c1nnc(NC(=O)C2CCN(C(=O)c3ccco3)CC2)s1	1.9
Cc1ccc(C(=O)Nc2nnc(-c3ccncc3)o2)cc1	0.32

Retrieved by compound from the list above:
canonical_smiles	Kir21 block
CCCNC(=O)N1CCC(Cc2ccccc2)CC1	-0.08
COc1ccc(Cc2noc(CN3CCN(C4CCc5ccccc5C4)CC3)n2)cc1OC (stereo not drawn)	-0.74
Cc1cc(C)nc(N2CCC(C(=O)NCCc3ccc(F)cc3)CC2)n1	0.07
Cc1ccc(C(=O)Nc2nnc(-c3ccncc3)o2)cc1	0.32

Carrying on:
canonical_smiles	Kir21 block
CC(C)(O)CNC(=O)C(Cc1ccccc1)N1C(=O)c2ccccc2C1=O (stereo not drawn)	-1.4
C=CCNC(=O)NC(=O)COC(=O)/C=C/c1cccc([N+](=O)[O-])c1	-0.06
CCCCCOc1ccc(C(=O)OC(C)C(=O)NCc2ccco2)cc1 (stereo not drawn)	0.37
Cc1nc(-c2ccc(S(=O)(=O)NCc3cccnc3)s2)cs1	-0.39
CCCCc1nc(SCC(=O)Nc2nnc(C(C)C)s2)n[nH]1	-1.2
Cc1sc(C(=O)Nc2ccc3ccccc3c2)cc1CC(=O)O	1.2
Cc1nc2cc(NC(=O)Nc3cccc4ccccc34)ccc2n1C	-0.22
O=C(c1ccccc1)N1CCN(C(=S)NCCc2ccccc2)CC1	-1.7
Cc1ccc(C(=O)NC2CCN(S(=O)(=O)c3ccccc3)CC2)cc1	-0.09
O=C(CSc1ncnc2c1cnn2-c1ccccc1)NCC1CCCO1 (stereo not drawn)	1.6
COc1ccc(CC(=O)N/N=C(\C)CC(=O)Nc2ccc(N(C)C)cc2)cc1	-0.75
COc1ccc(CN2CCN(C(=O)Cn3c(=O)oc4cc(Cl)ccc43)CC2)c(OC)c1OC	0.1
Cc1cc(NC(=O)Cc2cn3ccsc3n2)n(-c2ccccc2)n1	0
Cc1ccc(NC(=O)CN2C(=O)/C(=C\c3cccs3)SC2=S)cc1	0.5
O=C(CNC(=O)c1ccc(S(=O)(=O)N2CCCC2)cc1)N/N=C/c1ccccc1Cl	-3.3
COC(=O)/C(=C/c1ccco1)NC(=O)c1ccco1	-2
COc1ccc(C(O)CNc2ccc(C)cc2)cc1 (stereo not drawn)	-2
CC(=O)Nc1c2c(nn1-c1ccc(C)cc1)CS(=O)(=O)C2	2.1
O=C(COC(=O)Cc1c[nH]c2ccccc12)Nc1c(Cl)cccc1C(F)(F)F	0.02
Cc1ccc(Nc2nc(N)nc(CN3CCN(Cc4ccccc4)CC3)n2)cc1Cl	1.3
CNC(=O)c1c(NC(=O)c2ccc(S(=O)(=O)N3CCCCC3C)cc2)sc2c1CCN(C)C2 (stereo not drawn)	0.37
CCN1CCCC1CNC(=O)c1ccc(N2CCOCC2)c(NS(=O)(=O)c2ccc(OC)cc2)c1 (stereo not drawn)	-0.87
CCCCNC(=O)CSc1nc(N)c(C(=O)Nc2ccc(OC)cc2)s1	0.11
